# High-throughput results deposited in PubChem BioAssay by National Center for Advancing Translational Sciences (NCATS).
# miR-21 FLuc: qHTS Assay for Modulators of miRNAs and/orActivators of miR-21 | HeLa miR-21 FLuc reporter, luciferase, 48 h | Potency, µM (highest dose often 38.3 µM), inactives show top-dose reporter change, positive = more light | 340,000 tested, under 10 active; active = well fitted rising curve with a large enough effect; inconclusive = small, poorly fitted or top-dose-only effect; inactive = no such curve, though single readings can be large or run the other way;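 note: % of control where 0% means no effect; miR-21 action dims this reporter so a rising signal means less miR-21 action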
#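 HeLa cells endogenously expressing miR-21, stably carrying CMV-driven firefly luciferase with a downstream miR-21 binding site, 2000 cells/well. Titrations up to approximately 40 uM, 48 hours; luciferase luminescence read.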
# Rango-impB inh: qHTS Assay for Inhibitors of Rango (Ran-regulated importin-beta cargo) - Importin beta complex formation | Importin subunit beta-1 (Homo sapiens), Q14974 | Rango CFP/YFP FRET sensor + importin beta, 45 min | Potency, µM (series often up to 92.2 µM), without a hit: at the highest dose inhibition of complex formation | hit rate 0.031% among 340,000; active = rising FRET ratio curve, often small or poorly fitted; inconclusive = mostly compound fluorescence or quenching in the first reads; inactive = flat curves in all reads;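 note: potency is the fitted concentration of half-maximal effect; 0% = DMSO wells and 100% = buffer wells lacking importin beta; nearly all actives have a fitted effect of over 15% in size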
#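 Inhibition scored from the CFP 486 nm/YFP 530 nm FRET ratio 45 min after adding 0.125 microM importin beta to 50 nM Rango biosensor preincubated 5 min with compound (room temperature, PBS with DTT, Tween-20, BSA). No-importin wells as positive control.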
# Rango dissoc inh: qHTS Assay for Inhibitors of RanGTP induced Rango (Ran-regulated importin-beta cargo) - Importin beta complex dissociation; Snurportin-1 (Homo sapiens) + GTP-binding nuclear protein Ran (Homo sapiens) + Importin …; Biochemical FRET Rango-importin beta, RanGTP-induced dissociation; Potency, µM (top dose mostly 46.1 µM), inactives show top-dose activity change, negative = inhibition; hit rate 0.071% among 340,000; AID 540253, 2011; active means falling FRET ratio curve, often poorly fitted, with flat reads before Ran was added; inconclusive means other falling curves, or compound fluorescence or quenching; inactive means flat or rising ratio curve;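 note: potency is the fitted concentration of half-maximal effect; % of control where 0% means no effect; nearly all actives have a fitted effect of over 45% in size; -100% = wells without RanGTP and RCC1; the record marks most hits as doubtful in a second field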
#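 Recombinant Rango FRET biosensor (EYFP–snurportin 1 IBB–cerulean CFP10) at 0.1 uM premixed with 0.25 uM importin beta in PBS, 1 mM DTT, 0.02% Tween-20, 0.1% BSA. Compound added 5 min; RanGTP-RCC1 (0.6 uM Ran, 2 mM GTP, 0.2 uM RCC1) then triggers release, read at 45 min.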
# GLA inh pH 4.5: qHTS Assay for Inhibitors of Human alpha-Galactosidase at pH 4.5; purified enzyme, 4-MU-alpha-Gal fluorescence, pH 4.5; Alpha-galactosidase A (Homo sapiens), P06280; AID 1467, 2008; activity change, negative = inhibition, % at 105 µM; 230,000 tested, under 10 active; inconclusive = small, poorly fitted or top-dose-only inhibition, or a rising curve; inactive = flat fitted curve, though single readings scatter; no compound was filed as active;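 note: 0% = full activity with enzyme and -100% = basal without enzyme; dose as in the result columns while the protocol names 77 µM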
# Target sequence (P06280 whole entry, looked up): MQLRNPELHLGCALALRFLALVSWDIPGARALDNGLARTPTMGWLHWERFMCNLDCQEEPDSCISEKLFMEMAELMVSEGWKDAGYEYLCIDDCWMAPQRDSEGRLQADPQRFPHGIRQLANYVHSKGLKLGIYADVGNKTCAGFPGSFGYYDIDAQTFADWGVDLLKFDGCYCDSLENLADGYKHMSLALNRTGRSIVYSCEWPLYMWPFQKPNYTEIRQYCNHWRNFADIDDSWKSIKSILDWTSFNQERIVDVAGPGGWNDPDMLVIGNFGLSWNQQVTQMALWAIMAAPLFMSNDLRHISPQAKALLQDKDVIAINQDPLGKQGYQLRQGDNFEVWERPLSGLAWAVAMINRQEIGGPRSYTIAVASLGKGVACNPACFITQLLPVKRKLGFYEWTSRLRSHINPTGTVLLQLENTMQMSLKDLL
# * marks the source's active call; other numbers are inactive results; ? = inconclusive; / = no result given; & = joins results of further samples; [ ] = remark or other dose. This is a subset, so the mix of outcomes need not match the whole.
SMILES,miR-21 FLuc,Rango-impB inh,Rango dissoc inh,GLA inh pH 4.5
O=C(Nc1ccc2oc(-c3cccnc3)nc2c1)c1ccco1,-61%,-0.2%,-4%,16
COc1ccc(Br)cc1/C=N/NC(=O)CNC(=O)C1COc2ccccc2O1 (stereo unspecified),-3%,-3.8%,-1%,/
CSc1ccc(CN2C(=O)NC3(CCCCCCC3)C2=O)cc1,11%,-0.5%,1%,-10
NS(=O)(=O)c1ccc(CCNC(=S)Nc2ccc(S(N)(=O)=O)cc2)cc1,-3%,-0.4%,18%,2
Cc1cccc(C(=O)NCCNC(=O)c2ccco2)c1,-5%,-3.5%,1%,/
Cc1nc2cc(-c3cccc(F)c3)nn2c(N2CCN(C(=O)c3ccco3)CC2)c1C,-45%,-0.1%,3%,5
O=C(O)c1cccc(N/N=C/c2sc(N3CCOCC3)nc2-c2ccccc2)c1,-70%,?,?,2
CO/N=C/NC(=O)c1c(OC)ccnc1Oc1ccc(F)cc1,-2%,5.1%,-8%,-4
CC(C)Oc1cccc(C(=O)C2CCCN(Cc3cnc(N4CCOCC4)s3)C2)c1 (stereo unspecified),22%,-0.7%,-1%,4
CCOC(=O)c1ccc(Cn2cnc3ccccc3c2=O)cc1,-19%,-1.3%,-5%,-1
CC1(C)CC(=O)C2=C(C1)Nc1[nH]n(-c3ccccc3)c(=O)c1C2c1ccc2c(c1)OCO2 (stereo unspecified),-22%,0.6%,12%,-2
O=C(CN1C(=O)/C(=C\c2ccc(C(F)(F)F)cc2)Sc2ccccc21)NCc1ccco1,-7%,?,12µM*,2
Cc1ccc(Nc2nc(C)cs2)cc1,-65%,1.3%,1%,5
Cc1ccc(NC(=O)c2cc(-c3cccs3)on2)cc1,-23%,1.2%,10%,0
CCn1c(SCC(=O)c2cccs2)nnc1-c1ccco1,-35%,-0.9%,1%,-7
O=C(O)/C=C/C(O)c1ccc(Cl)cc1 (stereo unspecified),/,7.0%,9%,-4
COCCCNC(=S)NC1CC2CCCC(C1)N2Cc1ccco1 (stereo unspecified),-9%,-0.4%,3%,0
CN1CCN(C(=O)c2ccc3c(c2)N(Cc2ccccc2F)C(=O)c2ccccc2S3=O)CC1 (stereo unspecified),-3%,0.2%,7%,/
Cc1nc2ccccc2n1CC(=O)c1ccc(O)c(O)c1,/,-5.5%,12%,/
CSCCC(=O)N1CCCC(N2CCN(c3cccc(C(F)(F)F)c3)CC2)C1 (stereo unspecified),3%,-2.3%,-9%,/
O=C(Nc1ccccc1)c1ccc(Br)c(S(=O)(=O)Nc2ccccn2)c1,0%,-0.2%,-8%,/
COc1ccc(C)cc1NS(=O)(=O)c1ccc2c(c1)oc(=O)n2C,1%,1.2%,0%,/
COc1cccc(-n2nc(C(C)=O)c(C#N)c2-c2ccco2)c1,-13%,0.6%,2%,4
COc1cccc(NC(=O)CC(=O)c2ccc([N+](=O)[O-])cc2)c1,-50%,-1.5%,-12%,/
O=C1c2ccccc2S(=O)(=O)c2cc(N3CCC(C(=O)N4CCCCC4)CC3)ccc21,/,?,?,/

# Entries listed above that bear a hit mark in Rango dissoc inh.
SMILES,miR-21 FLuc,Rango-impB inh,Rango dissoc inh,GLA inh pH 4.5
O=C(CN1C(=O)/C(=C\c2ccc(C(F)(F)F)cc2)Sc2ccccc21)NCc1ccco1,-7%,?,12µM*,2

# The results go on.
SMILES,miR-21 FLuc,Rango-impB inh,Rango dissoc inh,GLA inh pH 4.5
COc1ccccc1OCc1ccc(C(=O)N2N=C(C(F)F)CC2(O)C(F)F)o1 (stereo unspecified),-1%,-0.4%,7%,9
O=C1CC[C@@]23CCCN2C(=O)CCCC3C1 (stereo partly specified),/,-0.8%,20%,-1
Cc1ccc(CNC(=O)C(=O)NCCC2CCCCN2S(=O)(=O)c2cccs2)cc1 (stereo unspecified),/,-0.3%,1%,/
COC(=O)C1CC2=C(CC(C)(C)CC2=O)N(c2ccccc2)C1=O (stereo unspecified),/,0.3%,42%,/
Cc1cnc(NC(=O)CSc2ncn(-c3ccccc3)n2)s1,0%,-0.2%,-1%,9
O=C(O)C1CCCCC1C(=O)OCCCCOC(=O)C1CCCCC1C(=O)O (stereo unspecified),-3%,-1.6%,3%,-1
C/C(=N\Nc1ccc(C(=O)O)cc1)c1nc2ccccc2n1C,-36%,/,/,-4
OC(COc1c(Cl)cc(Cl)cc1Cl)CN1CCCCC1 (stereo unspecified),-11%,1.5%,0%,3
C=CCOc1ccccc1CN1CCC(CO)(CCOc2ccccc2)CC1,-1%,0.4%,12%,-11
COCCN1CCN(Cc2cn(C)nc2-c2cccc(Cl)c2)CC1,-1%,-1.5%,11%,7
CCc1ccc(C2CC(c3ccco3)=NN2S(C)(=O)=O)cc1 (stereo unspecified),-44%,-2.1%,-17%,9
O=C(Nc1ccc2c(c1)C(=O)N(C1CCCCC1)C2=O)C1CCCO1 (stereo unspecified),-14%,-4.8%,2%,-2
Cc1cc(NCCCCCCCNc2cc(C)nc3cc([N+](=O)[O-])ccc23)c2ccc([N+](=O)[O-])cc2n1,/,1.9%,7%,/
Cc1cccc(-c2ccc3ncnc(NCc4cccnc4)c3c2)c1,/,-0.8%,5%,/
O=C(NC(=S)Nc1ccc(CN2CCOCC2)cc1)c1cccc([N+](=O)[O-])c1,-1%,-1.0%,-2%,-4
CC(C)(C)OCC1CO1 (stereo unspecified),/,-0.2%,1%,/
CCOC(=O)CC1CCCCN1C(=O)CCCn1nnnc1CN1CCC(C)CC1 (stereo unspecified),-4%,0.0%,7%,/
NC(=O)C1CCN(C(=O)CCCCCn2c(=O)[nH]c3ccsc3c2=O)CC1,-6%,2.3%,2%,-1
COc1ccc(CN2CCCC2C(=O)Nc2ccc(OC)c(OC)c2)cc1OC (stereo unspecified),-11%,5.4%,-8%,-1
CC1CN(C(=O)c2ccncc2)CC(C)O1 (stereo unspecified),3%,0.3%,2%,-8
CC(C)N(C(=O)[C@H]1C[C@H](CC(=O)NCc2ccco2)C(=O)N2CCc3c([nH]c4cc(-c5ccco5)ccc34)[C@]12C)C(C)C,/,?,-20%,/
NS(=O)(=O)c1cccc(NC(=O)COC(=O)CCc2ccccc2)c1,0%,-2.4%,0%,/
Cc1ccccc1NC(=O)/C=C/c1cccc(C(F)(F)F)c1,-40%,-4.2%,-8%,-6
c1cn2cc(-c3ccc4c(c3)OCO4)nc2s1,-9%,-0.1%,-10%,8
Cc1ccc(C(=O)NNC(=O)C2CCN(Cc3ccc(Cl)c(Cl)c3)CC2)cc1,-1%,-2.6%,1%,3

# (next part)
SMILES,miR-21 FLuc,Rango-impB inh,Rango dissoc inh,GLA inh pH 4.5
O=C1NC(c2cn(-c3ccccc3)nc2-c2cccs2)C(C(=O)c2cccnc2)C(O)(C(F)(F)F)N1 (stereo unspecified),-23%,1.6%,0%,4
CCCCCCCCNCCS(=O)(=O)NCc1ccccc1OC,/,-1.0%,2%,/
COC(=O)c1c(-c2ccc(OC)cc2)sc2cc(OC)c(OC)cc12,/,0.7%,-13%,/
O=C(Cc1ccc(Br)cc1)Nc1ccccc1N1CCCC1,0%,-1.0%,-10%,/
CCOC(=O)CSc1cc(CS(C)(=O)=O)nc(-c2ccccn2)n1,1%,-3.9%,-5%,2
O=C(NCCCN1CCOCC1)c1cc2nc(-c3ccco3)cc(C(F)(F)F)n2n1,-3%,?,-29%,/
COc1cc(NC(=O)C/C(C)=N/NC(=O)c2ccccn2)c(OC)cc1Cl,-54%,0.6%,-3%,/
CCOC(=O)c1oc2ccc(OC)cc2c1NC(=O)CN1CCN(C)CC1,-9%,-1.8%,2%,-1
Cc1cccc(-n2ncc3c2CCCC3NC(=O)Cn2cccn2)c1C (stereo unspecified),-5%,-0.7%,-3%,/
COc1cc2ccccc2cc1C(=O)NCC(c1cccs1)N(C)C (stereo unspecified),-14%,-3.1%,2%,-4
CCN(CC)CCNCc1ccc(Br)cc1OCC(=O)NCc1ccccc1,-2%,-0.2%,1%,-3
O=C(NC1CCCCCCC1)c1ccc(S(=O)(=O)N2CCCC2)cc1,-9%,-1.8%,-7%,5
O=C(CN(C(=O)c1csnn1)c1ccccc1)NCc1ccc2c(c1)OCO2,-6%,-0.3%,-3%,/
CC1CCN(S(=O)(=O)c2cccc(C(=O)NCc3ccco3)c2)CC1,-6%,-0.4%,-15%,-12
CCCc1cc(=O)n2[nH]c(-c3ccco3)nc2n1,0%,-4.3%,-3%,-2
CN1CCN(CC(O)COc2ccc(OCC(O)CN3CCN(C)CC3)cc2)CC1 (stereo unspecified),2%,5.7%,-17%,-3
O=C(NNS(=O)(=O)c1ccc([N+](=O)[O-])cc1)c1cnn(-c2ccccc2)c1-n1cccc1,-6%,-0.3%,20%,-3
CCn1c(SCC(=O)Nc2nc3ccccc3s2)nnc1-c1ccc(Br)cc1,-1%,-3.6%,3%,4
CCOc1cc(/C=C/c2cccc[n+]2C)ccc1OCC(=O)Nc1ccc(C)cc1,16%,?,-22%,/
COc1ccccc1NC(=O)Nc1ccc2c(c1)CCC2,-57%,0.3%,-5%,/
CC(=O)OCC(=O)C1(O)CCC2C3CC(F)C4=CC(=O)CCC4(C)C3C(=O)CC21C (stereo unspecified),/,6.4%,0%,/
COc1ccc(NC(=O)CCNS(=O)(=O)c2ccc3c(c2)c(=O)n(C)c(=O)n3C)c(OC)c1,-2%,-1.9%,-7%,-10
CCOC(=O)CCc1c(C)n(CC)c2cc(-c3ccccc3OC)nn2c1=O,-4%,-0.4%,8%,0
CCOc1ccc2nc(Cl)c(C3CC(c4ccco4)=NN3S(=O)(=O)c3ccccc3)cc2c1 (stereo unspecified),-10%,-1.7%,-7%,-8
CS(=O)(=O)N(CC(=O)NCCSCc1c(F)cccc1Cl)c1ccc2c(c1)OCO2,2%,-1.1%,2%,-13

# The results go on:
SMILES,miR-21 FLuc,Rango-impB inh,Rango dissoc inh,GLA inh pH 4.5
Cc1ccc(C(=O)NNC(=O)c2ccncc2)cc1[N+](=O)[O-],/,0.5%,9%,/
CCCCNc1c(-c2ccc(OC)c(SC3CCCCC3)c2)nc2cc(C)ccn12,/,?,?,/
Cc1cc(NC(=O)CSc2nnc(-c3cccnc3)n2C2CCCCC2C)no1 (stereo unspecified),1%,-0.6%,2%,-9
COc1ccc(CNCCCSc2ncccn2)cc1OC,0%,0.6%,0%,/
Cc1cccc(C)c1OCc1cc(C(=O)NCC2CCCCC2)no1,-2%,-2.9%,0%,/
O=C(CCCC(=O)c1ccccc1)Nc1ccc(F)cc1,-2%,-1.3%,0%,/
COC(CNC(=O)C1CCCN(S(=O)(=O)c2c(C)noc2/C=C/c2cccs2)C1)OC (stereo unspecified),-2%,1.1%,-6%,-3[21.1 µM]
O=C(CN1CCCCCC1)Nc1ccc(Br)cc1[N+](=O)[O-],-5%,4.2%,3%,/
COc1ccc(-c2cc(C(F)(F)F)nc(S(=O)(=O)CCC(=O)N3CCOCC3)n2)cc1,-2%,-0.1%,4%,-4
COc1ccc(/C=C/C(=O)OCC(=O)NCCCc2ccccc2)cc1OC,/,-1.0%,15%,/
COc1ccc(C(=O)NNC(=S)NC(=O)c2cccc([N+](=O)[O-])c2)cc1,/,-0.8%,-5%,/
CCN1C(=NCCc2c[nH]c3ccccc23)N[C@@H](c2ccccc2)[C@H](C(=O)OC)[C@H]1C,3%&2%,4.3%,12%,/
CC(O)C(NC(=O)OCc1ccccc1)C(=O)OCc1ccccc1 (stereo unspecified),/,-3.8%,2%,/

# Record cards, as listed above. Order of screens: miR-21 FLuc	Rango-impB inh	Rango dissoc inh	GLA inh pH 4.5
# COC(CNC(=O)C1CCCN(S(=O)(=O)c2c(C)noc2/C=C/c2cccs2)C1)OC (stereo unspecified) is entered as -2%	1.1%	-6%	-3[21.1 µM]
# Cc1ccc(C(=O)NNC(=O)c2ccncc2)cc1[N+](=O)[O-] is entered as /	0.5%	9%	/
